Compound activity as filed in PubChem.
Ecoli growth: E. coli growth inhibition, primary screen, OD600; Escherichia coli growth, 23 h; active compounds read low; OD600 absorbance (no concentration beside the values); 330,000 compounds, 0.21% hits; AID 1053175, 2014;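 active means OD600 absorbance below the run mean of sample wells minus 3.6 SD, in any replicate, cut at about 0.56 in these data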;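 further: stock transfer was 300 nL into about 60 µL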
Vif TR-FRET: inhibitors of Vif binding to APOBEC3G peptide, primary screen, biochemical, TR-FRET, GST-Vif 1-94, biotin-A3G peptide, dose response retest (AID 1117319). Virion infectivity factor (Human immunodeficiency virus type 1 group M subtype B (isolate …. TR-FRET GST-Vif / biotin-A3G peptide binding; higher % means a stronger effect; test concentration not given here; strong numbers were not always called active. one-dose inhibition, %; IC50 in µM for titrated hits. 260,000 compounds, 0.57% hits;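 active means above the screen mean plus three standard deviations and confirmed in dose response; inconclusive means results disagree or hit not tested in dose response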;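 further: Vif residues 1-94 fused to GST binding biotinylated APOBEC3G peptide 110-148; 0% = full assay without inhibitor and 100% = GST in place of GST-Vif; retest series ran down from 100 µM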
Bfl-1 A1 inh: caspase 3/7 activation in MEF A1-2A-BIM cells, primary screen, A1 inhibitor project, cell-based, luminescence, HTS; caspase activation, % (concentration not given with the values); 330,000 compounds, 0.066% hits; AID 2462, 2010; Caspase-Glo 3/7 luminescence, 3 h; percent of clofoctol response, vehicle zero;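 active means over half of replicate activation scores above 10%, or exactly half above 10 with the replicate mean above 10; inconclusive means replicate mean below 10 yet half the replicates above 10; inactive means over half of replicates below 10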;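 further: wells of about 30 µL received 50 nL stock; many hits fall short of the cut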
LANA-H2B inh: blockers of LANA interaction with H2A/H2B – biochemical, FP readout, HTS, primary screen; cell-free LANA-H2A/H2B peptide, fluorescence polarization; inhibition, % (test concentration not listed); AID 2629, 2010; 320,000 compounds, 0.6% hits; in the data active means inhibition mostly above about 10%, no sharp cut-off; inactive means mostly below about 6.7%;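 further: stock transfer was 7.5 nL into about 10 µL; 0% = median of vehicle wells and 100% = median of positive control wells; one replicate is shown; the record names a cut of 25% in any replicate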
HNF4A DNA FP: change in binding of human HNF4A to DNA, primary screen, biochemical, fluorescence polarization, FITC-DNA; 360,000 compounds, 0.3% hits; Hepatocyte nuclear factor 4-alpha (Homo sapiens), P41235; AID 1224865, 2016; 1 h; activity change, % at 10 µM; in the data active means activity change above about 30%, passing the limit was not always enough;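 further: controls were the assay level and a saturating level of protein; the project sought stronger binding though the title names inhibitors; some compounds called inactive have numbers as strong as hits; positive values seem to mean higher polarization but the record does not say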
Target sequence (P41235 whole entry, looked up): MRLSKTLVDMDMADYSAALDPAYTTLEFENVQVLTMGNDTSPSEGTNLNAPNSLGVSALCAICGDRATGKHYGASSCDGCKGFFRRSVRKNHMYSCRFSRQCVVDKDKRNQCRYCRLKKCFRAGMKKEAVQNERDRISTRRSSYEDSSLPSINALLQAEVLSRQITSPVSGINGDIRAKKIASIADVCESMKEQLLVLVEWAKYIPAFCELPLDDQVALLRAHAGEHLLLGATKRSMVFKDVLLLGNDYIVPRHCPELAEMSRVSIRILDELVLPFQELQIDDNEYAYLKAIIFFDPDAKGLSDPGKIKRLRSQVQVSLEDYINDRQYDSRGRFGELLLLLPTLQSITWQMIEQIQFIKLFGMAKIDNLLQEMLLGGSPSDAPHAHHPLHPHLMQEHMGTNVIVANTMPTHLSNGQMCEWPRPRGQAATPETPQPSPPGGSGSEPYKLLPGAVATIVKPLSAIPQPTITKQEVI
Beta2AR agonist: beta2AR agonists driving receptor internalization, primary screen, cell-based, FAP fluorogen, flow cytometry; Beta-2 adrenergic receptor (Homo sapiens), P07550; Am2.2-beta2AR cells; reference of the scale not given here; response, % (concentration not given with the values); 340,000 compounds, 0.43% hits; AID 504454, 2011;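 active means response above a set limit, near 3 SD of response in nonfluorescent compounds, cut at about 42% in these data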;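 further: stock transfer was 100 nL into about 11 µL; a reference agonist was the positive control; negative values mostly stem from fluorescent compounds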
UCH37 inh: inhibitors of human UCH37 deubiquitinase, primary screen, biochemical, Ub-AMC cleavage, fluorescence | inhibition, % (test concentration not listed) | 330,000 compounds, 0.33% hits | purified proteasome/UCH37 | AID 588478, 2011;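 active means mean of two replicates above 20%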;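 further: 0% = compound-free wells with enzyme and 100% = wells lacking proteasome; stock transfer was 100 nL into about 20 µL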
Target sequence (Q9Y5K5 whole entry, looked up): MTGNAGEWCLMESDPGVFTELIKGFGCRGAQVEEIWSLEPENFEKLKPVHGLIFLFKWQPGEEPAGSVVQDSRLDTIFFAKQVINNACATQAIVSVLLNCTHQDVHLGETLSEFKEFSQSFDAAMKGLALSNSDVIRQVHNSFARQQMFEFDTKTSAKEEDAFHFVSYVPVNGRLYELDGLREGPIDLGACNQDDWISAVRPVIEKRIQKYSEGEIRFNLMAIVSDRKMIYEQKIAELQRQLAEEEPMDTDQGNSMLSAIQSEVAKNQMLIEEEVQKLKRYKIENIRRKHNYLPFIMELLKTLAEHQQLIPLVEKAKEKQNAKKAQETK
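system = Proteasome-associated human UCH37 deubiquitinase | amount = 0.15 nM proteasome as dispensed | medium = pH 7.4 Tris-HCl (50 mM) with ovalbumin, ATP-MgCl2, DTT | incubation = 30 min preincubation with enzyme, 25 min cleavage at room temperature | detection = AMC fluorescence 355/460 nm | read-out basis = percent inhibition | controls = no-proteasome and no-compound wells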
* marks the source's active call; other numbers are inactive results; i = inactive; u = inconclusive; x = not tested or not shown. Compounds were not picked by outcome; about 2.1% have a hit in one of these screens.

SMILES	Ecoli growth	Vif TR-FRET	Bfl-1 A1 inh	LANA-H2B inh	HNF4A DNA FP	Beta2AR agonist	UCH37 inh
CN(C(=O)c1cccc(NC(=O)Cc2ccc(NC(=O)C3CCCN(S(=O)(=O)c4cccc([N+](=O)[O-])c4)C3)cc2)c1)C1CCCCC1 (stereo unspecified)	0.69	-5%	x	x	-0.6	7	0.8
CC(=O)Nc1ccc(NC(=O)C(=O)c2cn(CC(=O)N3CCCC3)c3ccccc23)cc1	0.63	x	0.3	-0.5	1.4	10	13
CCOC(=O)N1CCC(NS(=O)(=O)c2cc3c(cc2Br)CCN3C(=O)CC)CC1	x	-6%	x	x	-3.3	-11	x
CN(C(=O)c1cccc(NC(=O)Cc2ccc(NC(=O)C3CCCN(C(=O)C4CCCCC4)C3)cc2)c1)C1CCCC1 (stereo unspecified)	0.71	x	x	x	-6.1	-10	3.3
Cc1ccc(OCCC(=O)OCC(=O)NC2CCCC2)cc1	0.71	2%	-0.8	-0.6	8.1	-4	2.8
COc1ccccc1NS(=O)(=O)c1ccc(S(=O)(=O)N2CCOCC2)cc1	0.68	-8%	-0.1	3.6	-1.0	-1	3.4
COc1ccc(C2/C(=C(/O)c3ccccc3)C(=O)C(=O)N2C)cc1OC (stereo unspecified)	0.71	x	1.3	12	0.3	-5	11
CCCCCN(C(=O)NC(=O)Nc1nncs1)S(C)(=O)=O	0.64	5%	-0.1	-1.3	2.5	-7	0.7
Cc1cc(C)nc(N2CCN(c3ccc(F)cc3)CC2)n1	0.68	x	0.5	-0.8	-2.1	5	5.0
CCNC(=S)NNC(=O)c1cc(-c2cccnc2)nc2ccccc12	0.71	10%	-7.2	1.4	-5.2	0	2.6
Cc1ccc(S(=O)(=O)CCC(=O)c2ccc(O)cc2O)cc1	0.58	u	0.0	3.8	2.6	-1	9.7
CCCNC(=O)c1ccc(C)c(NC(=O)C2=C(C)OCCS2)c1	0.7	-3%	-0.4	4.0	3.1	-7	-2.6
COc1ccc2[nH]cc(CCn3ccc(=O)c(C)c3C)c2c1	0.71	-9%	1.8	2.4	1.1	-5	-1.2
COC(CNC(=O)c1cccc(-n2c(=S)[nH]c3cc(Cl)ccc3c2=O)c1)OC	0.71	-8%	0.2	-1.4	6.0	-1	3.7
Clc1cccc(Nc2ncnc3c2cnn3-c2ccccc2)c1	0.72	-3%	-0.5	-6.2	0.0	24	-9.1
CCCCCC/C=N/Nc1nnc(Cc2ccccc2)c(=O)[nH]1	x	x	0.5	3.4	-1.9	-4	x
CCOc1ccc(NC(=O)CN2C(=O)S/C(=C/c3cccn3C)C2=O)cc1	x	-1%	-1.3	-2.5	5.2	1	1.1
O=C(NCCc1ccccc1)c1ccccc1NC(=O)C1CCCO1 (stereo unspecified)	0.7	x	-0.2	2.1	-1.8	-5	-2.1
CC(C)(C)c1ccc(C(=O)Nc2ccc([N+](=O)[O-])cn2)cc1	0.71	-5%	-2.2	3.5	-2.3	4	2.5
Cc1ncc([N+](=O)[O-])n1CC(=O)Nc1ccc(OC(F)(F)Cl)cc1	0.69	9%	-0.1	0.4	-3.7	10	4.1
O=C(O)CCCC(=O)N1CCc2cc(S(=O)(=O)NCc3ccccc3)ccc21	0.71	x	0.8	7.4	-6.1	5	2.2
CC(OC(=O)c1cc2sccc2n1C)C(=O)NCC1CCCO1 (stereo unspecified)	0.64	1%	0.0	6.5	1.7	4	0.5
O=C(Nc1cc2c(cc1Br)OCCCO2)c1cccnc1	x	-7%	-0.5	-5.1	-6.0	-5	x
O=C1c2[nH]nc(-c3ccccc3O)c2C(c2ccc(F)cc2)N1Cc1ccco1 (stereo unspecified)	0.69	17%	-0.2	-5.6	1.5	-1	3.1
O=C(Nc1nc2c(s1)CCCC2)c1ccc(S(=O)(=O)N2CCCc3ccccc32)cc1	0.72	x	-0.1	3.6	-2.2	8	-2.3
Cc1nc(SCCO)c2oc3ccccc3c2n1	0.64	3%	-0.9	-2.7	-5.0	-8	4.9
CCOC(=O)C1CN(S(=O)(=O)c2ccc(OC)cc2)c2ccccc2O1 (stereo unspecified)	0.69	0%	0.3	-2.7	-3.0	4	2.3
CC1CN(Cc2ccc(Cl)cc2Cl)CC(C)O1 (stereo unspecified)	0.71	-2%	-0.6	-0.8	-1.4	2	1.4
COc1ccc(Cl)cc1NC(=O)NCc1cccnc1	0.65	7%	0.5	-12	3.5	-4	1.7
CCOC(=O)C1CCCN(CC(=O)Nc2c(C(=O)OC)[nH]c3ccc(Cl)cc23)C1 (stereo unspecified)	0.7	-6%	-0.5	-0.7	-1.4	4	1.4

Given in markdown: 3 of the compounds above
| canonical_smiles | Ecoli growth | Vif TR-FRET | Bfl-1 A1 inh | LANA-H2B inh | HNF4A DNA FP | Beta2AR agonist | UCH37 inh |
| --- | --- | --- | --- | --- | --- | --- | --- |
| CC1CN(Cc2ccc(Cl)cc2Cl)CC(C)O1 (stereo unspecified) | 0.71 | -2% | -0.6 | -0.8 | -1.4 | 2 | 1.4 |
| O=C(Nc1cc2c(cc1Br)OCCCO2)c1cccnc1 | x | -7% | -0.5 | -5.1 | -6.0 | -5 | x |
| O=C(O)CCCC(=O)N1CCc2cc(S(=O)(=O)NCc3ccccc3)ccc21 | 0.71 | x | 0.8 | 7.4 | -6.1 | 5 | 2.2 |

New compounds follow:
SMILES	Ecoli growth	Vif TR-FRET	Bfl-1 A1 inh	LANA-H2B inh	HNF4A DNA FP	Beta2AR agonist	UCH37 inh
Cc1ccc(CCC(=O)Nc2ncc(Cc3cc(Cl)ccc3Cl)s2)o1	0.67	4%	2.1	-0.9	3.1	27	-0.3
Cc1ccc(Cn2c3ccccc3c3cn[nH]c(=O)c32)cc1	0.73	-1%	0.5	0.1	-2.0	-15	1.9
C/C(=N\NC(=O)CSc1nc(C)cc(C)n1)c1ccc([N+](=O)[O-])cc1	x	x	1.5	-6.6	2.8	-3	x
Cc1cc(C)cc(OC(=O)CN2C(=O)c3ccccc3C2=O)c1	0.68	x	0.5	-6.2	-3.0	2	0.4
Cc1cc(C(=O)Nc2ccc(S(=O)(=O)Nc3onc(C)c3C)cc2)cs1	0.69	68%	-0.2	-0.8	0.3	-13	1.8
CN(Cc1ccccc1)C(=C(Cl)Cl)C(=C1NCCN1)[N+](=O)[O-]	0.68	x	0.2	3.2	1.2	3	-0.1
Cc1nnc(SCC(=O)N2CCc3ccccc3C2)s1	0.68	-7%	-0.1	3.2	-1.0	3	1.9
CCn1c(COc2cc(C)ccc2C(C)C)nnc1SCC(=O)Nc1nccs1	0.69	x	1.0	-2.6	-9.3	2	3.7
Cc1ccc2nnnc(-c3ccccc3)c2c1	0.64	x	0.1	-2.2	3.5	6	1.6
COc1cc(NC(=O)C2CSC3(C)CCC(=O)N23)c(OC)cc1Cl (stereo unspecified)	0.71	-2%	0.2	1.7	5.9	0	1.5
COc1cc2c(cc1OC)CN(C(=O)C1CCCN1S(=O)(=O)c1ccc(C)cc1)CC2 (stereo unspecified)	0.71	x	-0.7	-4.3	1.2	3	7.0
COc1ccc(CN(CC(=O)NC2CCCC2)C(=O)c2onc(C(N)=O)c2N)cc1	0.67	30%	1.6	0.6	1.0	4	4.2
Cc1ccc(-c2ccc(/C=N/N=C3/NC(=O)C(CC(=O)O)S3)o2)c([N+](=O)[O-])c1 (stereo unspecified)	x	u	0.8	2.8	2.4	-8	x
Cc1onc(-c2c(Cl)cccc2Cl)c1C(=O)NCCc1ccncc1	0.74	x	0.8	-2.1	3.9	-2	1.0
C=CCOC(=O)C1=C[C@@H](c2coc3ccccc3c2=O)[C@H](CCCO)[C@@H](OCC)O1	x	-3%	0.2	-1.3	2.6	-4	1.2
Cc1ccc(NC(=O)c2cccc(S(=O)(=O)N3CCN(c4ccccc4)CC3)c2)nc1	0.72	1%	0.3	x	-0.1	-1	0.3
COc1ccc(-c2nnc(NC(=O)Cc3ccccc3)s2)c(OC)c1	0.71	x	2.3	1.1	2.2	-3	-15
CC(C)CNS(=O)(=O)c1ccc(CCC(=O)N2CCN(Cc3ccccc3)CC2)cc1	0.7	2%	1.4	0.1	-0.8	6	4.8
CC1=CC(C/C(C)=C/COc2ccc3ccc(=O)oc3c2)OC1=O (stereo unspecified)	0.79	x	-1.2	-6.4	2.5	-14	-137
Cc1cccc(NS(=O)(=O)c2cccc(C(=O)NCC(c3ccc(F)cc3)N3CCOCC3)c2)c1 (stereo unspecified)	0.69	x	x	x	-0.1	4	1.8
CCN1CCN(C(=O)CN(C)S(=O)(=O)c2ccc(OC)c(C)c2)CC1	0.7	57%	0.1	-5.2	1.1	3	2.4
Cc1ccc(CSc2ncnc3c2cnn3Cc2ccccc2)cc1C	0.67	-5%	1.3	-3.0	-4.7	14	3.6
Cc1cccc(NS(=O)(=O)c2ccc3c(c2)oc(=O)n3C)c1C	0.66	x	-0.7	-6.2	-2.2	3	1.8
COc1ccc(C2CC(c3ccncc3)=NN2c2ccc(S(N)(=O)=O)cc2)cc1 (stereo unspecified)	0.69	-3%	x	x	-7.6	-45	i
O=C(Cn1nnc(-c2ccc3c(c2)OCO3)n1)NCc1ccco1	0.72	9%	-0.1	1.3	-0.4	-12	4.5
COc1ccccc1NC(=O)Cn1c(=O)n(-c2ccccc2)c(=O)c2oc3ccccc3c21	0.72	-6%	-0.2	-1.2	3.8	4	-2.0
CC(C)(C)c1ccc(-c2csc(NC(=O)CN3C(=O)NC4(CCCCC4)C3=O)n2)cc1	0.69	-9%	-0.2	-1.1	-1.1	5	0.9
Cc1[nH]c2ccccc2c1C(c1ccccn1)N1CCCC1 (stereo unspecified)	0.72	12%	0.1	1.0	-0.5	-3	3.0
CN1C(=O)C(C)(C)c2cc(S(=O)(=O)N3CCCC3C(=O)NCc3ccc(F)cc3)ccc21 (stereo unspecified)	0.7	x	-0.3	-1.1	-1.6	0	3.6
Cc1ccc2cccc(Oc3ncnc4scc(-c5ccc(Cl)cc5)c34)c2n1	0.72	x	-0.7	x	-5.4	0	-0.4
CCCn1c(SCC(=O)Nc2ccc(Cl)cc2F)nc(O)cc1=O	0.71	x	0.6	1.7	5.1	12	6.1
COc1cccc2c1oc1c(SCc3nc4ccccc4[nH]3)nc(C)nc12	0.69	x	-1.8	-0.7	3.2	-16	-0.1
CC(=O)c1c(C)[nH]c(C(=O)Nc2cccc(C(F)(F)F)c2)c1C	0.61	x	-0.2	-2.5	1.1	6	-2.9
O=C(CSc1oc(-c2cccs2)nc1S(=O)(=O)c1ccccc1)NC1CCCCC1	0.67	-12%	-0.5	2.1	-4.3	18	-7.9
COc1ccc(C(=O)Nc2cnn(Cc3ccc(Cl)cc3)c2)cc1OC	0.63	x	-0.1	-4.2	-1.5	4	4.7
CCOc1ccccc1C(=O)NCC(=O)NNC(=O)c1cccc(S(=O)(=O)Nc2ccc(OC)cc2)c1	0.69	-3%	0.0	3.9	-1.0	-5	0.8
O=C(NCc1ccncc1)c1ccc(Br)o1	0.68	6%	0.3	-2.1	0.8	-1	-1.4
Cc1nn(CC(=O)N2CCc3ccccc3C2)c(C)c1Cl	0.7	x	1.3	-1.0	-2.4	-3	5.4
O=C1OCc2ccc(NS(=O)(=O)c3ccc(C(F)(F)F)cc3)cc21	0.6	1%	0.9	3.2	1.7	8	0.7
COc1cc(OC)c(C(=O)OCC(=O)NCCc2ccccc2)cc1OC	0.68	-1%	0.8	5.2	4.1	-5	0.0
